KCNQ2 inh: KCNQ2 channel blockers in CHO-K1 cells – cell-based, FluxOR thallium flux, B-score, primary screen (AID 2156) | O88943 | 20 min; stronger effect = lower value; only compounds with negative scores are shown here; some inactives read as strong as hits | B-score at 10 µM | actives 1.1% (n = 310,000);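 active means fluorescence ratio B-score at most minus 3 library SDs, with starting brightness B-score within 2 library SDs, cut at about -5.5 in these data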
Target sequence (O88943 whole entry, looked up): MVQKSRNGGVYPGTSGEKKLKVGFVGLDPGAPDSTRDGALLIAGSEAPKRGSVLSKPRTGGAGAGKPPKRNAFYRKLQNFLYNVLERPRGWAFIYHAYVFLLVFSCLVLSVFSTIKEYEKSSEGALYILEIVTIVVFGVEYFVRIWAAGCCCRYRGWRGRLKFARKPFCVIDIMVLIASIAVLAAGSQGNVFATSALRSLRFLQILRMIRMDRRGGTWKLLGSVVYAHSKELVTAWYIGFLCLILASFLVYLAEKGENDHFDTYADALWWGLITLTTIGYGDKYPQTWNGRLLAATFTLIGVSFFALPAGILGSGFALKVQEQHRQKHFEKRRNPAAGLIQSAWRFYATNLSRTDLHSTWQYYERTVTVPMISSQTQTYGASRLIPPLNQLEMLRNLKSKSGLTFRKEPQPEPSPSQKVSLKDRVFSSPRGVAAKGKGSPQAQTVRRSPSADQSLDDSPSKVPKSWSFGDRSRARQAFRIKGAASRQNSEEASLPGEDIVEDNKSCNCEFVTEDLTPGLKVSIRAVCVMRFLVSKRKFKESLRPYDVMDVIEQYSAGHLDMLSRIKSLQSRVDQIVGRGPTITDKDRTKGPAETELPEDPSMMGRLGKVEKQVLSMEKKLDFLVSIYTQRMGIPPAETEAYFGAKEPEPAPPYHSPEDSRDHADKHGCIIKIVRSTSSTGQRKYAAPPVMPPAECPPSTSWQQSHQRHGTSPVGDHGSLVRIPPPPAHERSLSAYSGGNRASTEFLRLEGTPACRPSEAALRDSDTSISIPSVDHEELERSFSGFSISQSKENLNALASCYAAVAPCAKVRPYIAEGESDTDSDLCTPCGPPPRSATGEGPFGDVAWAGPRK
KCNQ2 inh baseline: recorded beside KCNQ2 inh, whose call it bears; B-score; measured here: initial fluorescence intensity artifact check;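 brightness before thallium and not channel activity; 0 = typical well and far values either way flag optical interference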
* = called active by the depositor; i = inactive. Some of the compounds tested; the hit share may differ from the screen's.

The line under a structure holds: KCNQ2 inh, KCNQ2 inh baseline
CCC(C)NC(=O)C1c2cc(OC)c(OC)cc2C(=O)N(C)C1c1ccc(OC)cc1 (stereo not given)
 : i, -1.5
CCCCNC(=O)C1CCN(S(=O)(=O)N2CCCCCC2)CC1
 : i, 0.69
COc1ccc(CC(=O)n2nc(-c3ccc(Cl)cc3)nc2NCc2ccco2)cc1
 : i, -2
COc1ccc(-n2c(=O)c3c4c(sc3n(CC(=O)Nc3cc(C)[nH]n3)c2=O)CCC4)c(OC)c1
 : i, -0.71
CC1(C)Oc2ccc(C(=O)N3CCCC3)cc2N(CC(=O)NCc2ccccc2)C1=O
 : i, -3.1
Cc1cccc(NC(=O)C2(C)CC3c4ccccc4C2c2ccccc23)c1C (stereo not given)
 : i, -0.57
CCOc1ccc(C(C)NC(=S)NCc2ccc(Cl)cc2)cc1 (stereo not given)
 : i, -1.2
COc1ccc(CNC(=O)CCCn2nc(C)c3c(C)n(-c4ccc(C)cc4)nc3c2=O)cc1OC
 : i, 0.14
O=C1CN(C(=O)COc2ccc(Br)cc2)c2ccccc2N1
 : i, 1.7
c1ccc(C[C@H]2CNCCN2CCc2cccc3ccccc23)cc1
 : i, -0.12
S=C(c1c[nH]c2ccccc12)N1CCOCC1
 : i, -1.1
O=C(Cc1ccc(Br)cc1)NCCc1ccc(Cl)cc1Cl
 : i, 2
Cc1cc(C)c(NC(=O)/C(C#N)=C/c2ccc(OCc3ccc(F)cc3)cc2)c(C)c1
 : i, 0.45
CN1CCN(c2nc(Nc3cccc(C(F)(F)F)c3)nc(N3CCOCC3)n2)CC1
 : i, 0.31
CCCCOc1ccc(NC(=O)CSc2cccc3cccnc23)cc1
 : i, 0.54
Cc1ccc(NC(=O)CN2C(=O)S/C(=C\c3cc(C)n(-c4cccc(C(=O)O)c4)c3C)C2=O)cc1
 : i, -0.5
COc1ccc2c(c1)-c1c(ssc1=S)C(C)(C)N2S(=O)(=O)c1ccc(C)cc1
 : i, 0.29
Cc1cc(S(=O)(=O)ON2C(=O)c3ccccc3C2=O)ccc1F
 : i, -1.8
COc1ccc(OC)c(NC(=O)CNC(c2ccccc2)c2ccccc2)c1
 : i, 1.1
CCOC(=O)c1sc2ncnc(N3CCN(C(=O)OCC)CC3)c2c1C
 : i, -0.03
COc1ccc2c(c1)c1nc3ccccc3nc1n2Cc1ccc(OC(C)C)c(OC)c1
 : i, -0.12
C/C(=N\Nc1cccc2cccnc12)c1ccc(N)cc1
 : i, -0.67
Cc1nn(Cc2ccccc2Cl)c(C)c1NC(=O)NC12CC3CC(CC(C3)C1)C2
 : i, 1.1
CCOc1ccccc1/C=N/NC(=O)CSc1n[nH]c(=O)[nH]c1=O
 : i, 1.5
Cc1cc(C(=O)Nc2ccc(Cl)cc2)c(C)n1Cc1cccs1
 : i, -0.05
CCC1CCC2(CC1)NC(=O)N(CC(=O)c1c(C)[nH]c3ccccc13)C2=O (stereo not given)
 : i, -1.3
CCOC(=O)CSc1nnc(CNC(=O)c2cccs2)n1Cc1ccccc1
 : i, 0.43
COc1cc(/C=C2\SC(=O)N(CCNC(=O)c3sc4cc(F)ccc4c3Cl)C2=O)cc(OC)c1OC
 : i, 0.61
COc1ccc(NC(=O)C2C(c3ccccc3)C2(Cl)Cl)c(OC)c1 (stereo not given)
 : i, -2.5
O=C(COC(=O)Cc1ccccc1[N+](=O)[O-])NCc1ccc(Cl)cc1
 : i, 0.78
CCOC(=O)NNC1CC(=O)N(c2ccc(OC)cc2)C1=O (stereo not given)
 : i, -0.86
O=C(Nc1nccs1)c1ccc(Br)c(S(=O)(=O)N2CCCC2)c1
 : i, 0.22
S=C(Nc1ccccc1)Nc1ccc(Br)cc1
 : i, 0.31
O=C(Nc1ccccc1)c1cccnc1NCCc1ccccc1
 : i, -1.9
CN1CCC(N(CCc2ccccc2)C(=O)CCC(=O)O)CC1
 : i, 1
CC(C)OCCCNC(=O)CCN1C(=O)COc2ccccc21
 : i, 0.57
CCOCCCNC(=O)N[C@H](C(=O)OC)C(C)CC (stereo not given in full)
 : i, 1.2
N#Cc1ccc(C(=O)N(Cc2ccccc2)c2ccccc2)cc1
 : i, 0.43
COc1ccc(C(=O)NCC(=O)OCc2ccccc2F)cc1
 : i, 0.57
O=C(CN1C(=O)NC2(CCc3ccccc3C2)C1=O)NCc1ccco1 (stereo not given)
 : i, -1.1

One compound at a time, as listed above. Order of values: KCNQ2 inh	KCNQ2 inh baseline
`CN1CCC(N(CCc2ccccc2)C(=O)CCC(=O)O)CC1` as listed: i	1
`CCOC(=O)CSc1nnc(CNC(=O)c2cccs2)n1Cc1ccccc1` as listed: i	0.43
`CC(C)OCCCNC(=O)CCN1C(=O)COc2ccccc21` as listed: i	0.57
`CCOCCCNC(=O)N[C@H](C(=O)OC)C(C)CC` (stereo not given in full) as listed: i	1.2

Other entries follow:
The line under a structure holds: KCNQ2 inh, KCNQ2 inh baseline
CCn1nnnc1Oc1ccc(Cl)cc1
 : i, 2
CC[N+](C)(CC)CC(=O)OCC1C(C)C=C(C)CC1C (stereo not given)
 : i, -1.1
COc1ccc(CNC(=O)C(=O)NCC2OCCN2S(=O)(=O)c2ccc3c(c2)OCCO3)cc1 (stereo not given)
 : i, -0.54
O=S(=O)(c1ccc2nc(SCc3cccc(Cl)c3)[nH]c2c1)N1CCOCC1
 : i, 0.66
CSc1ncc(S(=O)(=O)c2ccccc2)c(=O)[nH]1
 : i, 0.34
O=C1OCCN1C(=O)[C@H]1[C@H](c2ccc(Cl)cc2)C(c2cccc(Cl)c2)=NN1c1ccccc1
 : i, -0.94
Cc1oc(-c2ccc3ccccc3c2)nc1CN(C)C(C)c1ccncn1 (stereo not given)
 : i, -1.4
CSc1nc2c(c(-c3ccc(O)cc3)c1C#N)CCC2
 : i, -0.37
O=C(NCCCn1ccnc1)c1noc2c1CCc1ccccc1-2
 : i, 1.6
O=C(NCCc1ccccc1)c1cnc(Cl)c(Cl)c1
 : i, -0.8
CCOC1=NN(c2ncc(C(F)(F)F)cc2Cl)C(=O)C1
 : i, 0.66
CCNC(=O)CC1C(=O)N(c2ccc(C)cc2)C(=O)N1CCC(C)C (stereo not given)
 : i, 1.8
COc1ccc(C(=O)/C(=C\c2ccco2)N2C=CC=CC2=C(C#N)C#N)cc1
 : i, 2.1
O=C(Nc1ccc2c(c1)OCCO2)C1CCN(S(=O)(=O)c2ccccc2)CC1
 : i, -0.25
Cc1ccc(/C=N/NC(=O)CNC(=O)c2cccs2)cc1
 : i, 0.41
N#Cc1ccccc1Cn1cc(/C=C/[N+](=O)[O-])c2ccccc21
 : i, -1.1
CCOC(=O)c1c(NC(=O)COC(=O)c2c(C)noc2C)sc2c1CCC2
 : i, -0.11
O=C(COc1ccc([N+](=O)[O-])cc1)Nc1cccc(C(=O)Nc2ccccc2C(=O)O)c1
 : i, 1.2
C[C@@H]1CN(C2CCN(Cc3nc(C(c4ccccc4)c4ccccc4)no3)CC2)C[C@H](C)O1
 : i, -0.86
CC1CC(C)CN(CCCNC(=O)c2ccc(N3CCCC3=O)cc2)C1 (stereo not given)
 : i, 0.48

Copied from the entries so far for reference:
The line under a structure holds: KCNQ2 inh, KCNQ2 inh baseline
Cc1oc(-c2ccc3ccccc3c2)nc1CN(C)C(C)c1ccncn1 (stereo not given)
 : i, -1.4
CSc1nc2c(c(-c3ccc(O)cc3)c1C#N)CCC2
 : i, -0.37
O=C(NCCCn1ccnc1)c1noc2c1CCc1ccccc1-2
 : i, 1.6

(cont.)
The line under a structure holds: KCNQ2 inh, KCNQ2 inh baseline
CC(=O)OCC(=O)N1N=C(c2ccc3ccccc3c2)CC1c1ccccc1 (stereo not given)
 : i, 0.26
Cc1ccc(CNC(=O)COC(=O)Cn2nc(C)c([N+](=O)[O-])c2C)cc1
 : i, -1.3
CC(=O)NCCc1nc2cc(NC(=O)c3cccc([N+](=O)[O-])c3)ccc2n1C
 : i, -0.36
CCOC(=O)Cc1csc(NC(=O)c2cccc([N+](=O)[O-])c2)n1
 : i, -0.24
O=C(COc1ccccc1CNCc1ccccc1)Nc1ccccc1
 : i, 0.53
CC(C)Oc1ccc(C(CCNCc2ccc(O)cc2)c2ccccc2)cc1 (stereo not given)
 : i, -0.72
Cn1cnc(S(=O)(=O)Nc2ccc(OC(F)(F)F)cc2)c1
 : i, -0.76
CCc1ccc(-c2cc(C)no2)cc1S(=O)(=O)N1CCN(c2ccccc2)CC1
 : i, 0.33
O=C(COC(=O)CC(c1ccccc1)c1ccccc1)Nc1cccc(F)c1
 : i, -0.02
O=C(Nc1ccccc1N1CCCCC1)c1cccc(F)c1
 : i, 0.05
COc1ccc(S(=O)(=O)N2CCC(C(N)=O)CC2)cc1C(=O)N1CCCCCC1
 : i, 1.9
Cc1cc2cc(CNC(=O)c3ccco3)ccc2n1C
 : i, 2
COC(=O)c1ccc(OC)c(CSc2nnc(COc3cccc(C)c3)o2)c1
 : -6.1*, 2.3*
O=[N+]([O-])c1cc(Cl)ccc1NCCNS(=O)(=O)c1ccccc1
 : i, -0.68
CC(=O)Nc1ccc(OC(=O)c2ccco2)cc1
 : i, -0.63
Cc1ccccc1NC(=O)c1sc2nc3c(c(-c4ccco4)c2c1N)CCCC3
 : i, 0.46
COc1ccc(N(CC(=O)Nc2ccc(C)cc2C)S(=O)(=O)c2ccccc2[N+](=O)[O-])c(OC)c1
 : i, 0.97
O=C(O)/C(=C\c1ccc2ccccc2c1)c1cccc2ccccc12
 : i, -1.7
O=C(NNC(=O)c1cc2ccccc2cc1O)Nc1ccc(Br)cc1
 : i, -0.39
CC(=O)Nc1ccc(/C(C)=N/NC(=O)c2ccc(F)cc2)cc1
 : i, -0.78
Cc1cc(NC(=O)CSCC(=O)N(c2ccc(F)cc2)C(C(=O)NC2CCCCC2)c2ccc(O)c(O)c2)no1 (stereo not given)
 : i, 0.39
COC(=O)c1ccc(N2CCS(=O)(=O)CC2)cc1
 : i, 1.4
COc1cccc2sc(=NC(=O)CS(=O)(=O)c3ccc(Cl)cc3)n(C)c12
 : i, 0.78
COc1ccc(C(=O)NNC2=CC(=O)CC(C)(C)C2)cc1
 : i, -0.53
COc1ccc(C(=O)Cc2cnn(-c3ccccc3)c2)c(O)c1
 : i, 0.81
O=C(NCCc1ccccc1)c1ccc(=O)oc1
 : i, 0.99
Cc1ccc(OCc2nnc(SCC(=O)O)n2-c2ccccc2)cc1
 : i, 0.17
Cc1nc(-c2cccc(Br)c2)ccc1C(=O)O
 : i, -0.01
CCN(CC)CCNC(=O)C(=O)NCC1OCCN1S(=O)(=O)c1ccc2c(c1)OCCO2 (stereo not given)
 : i, -0.51
C/C(=N\NC(=O)C(C)Oc1ccc([N+](=O)[O-])cc1)c1ccccn1 (stereo not given)
 : i, -0.11
Cc1ccc(S(=O)(=O)N2CCCC2C(=O)OCC(=O)Nc2ccc3c(c2)OCO3)cc1 (stereo not given)
 : i, 0.01
COc1cccc(CNS(=O)(=O)c2ccc3c(c2)N(C)CCO3)c1
 : i, 2.9
COc1ccccc1NC(=O)CCN1CCCCCC1
 : i, 0.32
CCN(C(=O)c1ccc(C(C)(C)C)cc1)c1nnc(Cn2nnc3ccccc32)s1
 : i, 0.58
O=c1nc2ccccc2c2n1CC(CN1CCN(c3ccccc3F)CC1)N2 (stereo not given)
 : i, -2.1
CC1CCCN(CC(=O)Nc2cc(Cl)ccc2Oc2ccccc2)C1 (stereo not given)
 : i, 1.6
CC1CCC(NS(=O)(=O)c2cccc3nsnc23)CC1 (stereo not given)
 : i, 1.3
c1cc(CNCCCN2CCOCC2)ccn1
 : i, 2
C=CCN(C(=O)CNC(=O)c1cccs1)C(C(=O)NC(C)(C)C)c1ccccc1 (stereo not given)
 : i, 0.24
O=C1CCC(C(=O)N2CCCCCC2)CN1CCc1ccc(Cl)cc1 (stereo not given)
 : i, -1.6
CCC1(CC)Cc2ccccc2-c2nc(CN(C)C)[nH]c(=O)c21
 : i, 0.32
O=C(Nc1ccc2oc(-c3ccc(Cl)c(Cl)c3)nc2c1)c1ncn[nH]1
 : i, -0.84
O=S1(=O)CCN(C(CCO)c2cccc(C(F)(F)F)c2)CC1 (stereo not given)
 : i, -0.22
O=C(Nc1ccc(NC(=O)c2ccccc2Cl)cc1)c1cccnc1
 : i, 1.9
COc1ccc(C(CC(=O)Nc2ccc(Cl)cc2F)NC(=O)C(F)(F)F)cc1 (stereo not given)
 : i, 0.13
O=C(NCC1CCCO1)c1ccc(Cl)c(S(=O)(=O)Nc2ccccc2)c1 (stereo not given)
 : i, 1
Cc1cc(=O)n2c(-c3ccccc3C)n[nH]c2n1
 : i, -1.4
CC1(C)CCC(C)(C)NC(=S)N1
 : i, 0.05
N/C(Cc1ccc([N+](=O)[O-])cc1)=N\OC(=O)C(c1ccccc1)c1ccccc1
 : i, -0.01
CC(C)(C)NC(=O)CSc1nnc(-c2c[nH]c3ccccc23)o1
 : i, -1
CSCC(=O)N1CCCC(N2CCN(c3ccc(F)cc3)CC2)C1 (stereo not given)
 : i, -0.2
O=C(CN1CCCC1)NN=C(c1ccccc1)c1ccccc1
 : i, 0.02
CC1=C/C(=N\NC(=S)Nc2cccnc2)CC(C)(C)C1
 : i, 0.46
Cc1ccc(NC(=O)COc2ncnc3c(Cl)cc(Cl)cc23)cc1[N+](=O)[O-]
 : i, 0.98
C/C(=N/NC(=O)c1ccc(C)s1)c1cccc(NC(=O)COc2ccc(Cl)cc2C)c1
 : i, 0.23
CNC(=O)c1cc2ccc(OC)cc2oc1=O
 : i, 1.1
O=C1/C(=C/c2ccco2)SC(=S)N1c1cccnc1
 : i, -1.4
COc1cccc(/C=N/N=C(\N)c2nonc2N)c1O
 : i, 0.25
COC(=O)CN(Cc1ccccc1)S(=O)(=O)c1ccc(OC)c(OC)c1
 : i, 0.15
O=C(O)c1ccc(NS(=O)(=O)c2cccc3nsnc23)cc1
 : i, -0.24

Screening data deposited in PubChem by Johns Hopkins Ion Channel Center.
